# Assay outcomes deposited in PubChem by SRMLSC.
# H5N1 antiviral: MDCK cell protection from H5N1 avian flu. cytopathic effect, luminescence, 72 h; hits give high values; no value below 0 was filed and about half of the inactive calls have no number; reference of the scale not given here. inhibition, % at 50 µM. actives 0.07% (n = 96,000). AID 740; in the data active means inhibition above about 25%
# An asterisk follows results filed as active; i = inactive.
SMILES	H5N1 antiviral
C=CCn1cnc2c(c1=O)c1nc3ccccc3nc1n2/N=C/c1cc(OC)c(OC)c(OC)c1	i
C=CCc1cccc(CNc2nc3ccccc3n2CC)c1O	i
CCS(=O)(=O)N1CCC(C(=O)NC2CCCCC2)CC1	0.2
CCCCNC(=O)c1ccccc1NS(=O)(=O)c1ccc2c(c1)OCCO2	0.1
CS(=O)(=O)N1CC(C(=O)NC2CC2)Oc2ccc(Cl)cc21 (configuration not stated)	i
CCc1ccc(C2=NN(C(=O)OC)C(O)(C(F)(F)F)C2)cc1 (configuration not stated)	1.5
Cc1ccc2c(c1)n([O-])c1c([n+]2=O)CCCC1	i
Cc1ccc(CN2CC(C(=O)Nc3ccc(S(=O)(=O)Nc4cc(C)nc(C)n4)cc3)CC2=O)cc1 (configuration not stated)	0.3
Cc1cc(Cl)c(S(=O)(=O)NCCC(=O)O)cc1OCC(N)=O	0.2
COc1cc2c(cc1OC)CN(C(C)C(=O)Nc1ccc(NC(C)=O)cc1)CC2 (configuration not stated)	1.2
O=C1NC2(CCCC2)N=C1c1ccc(Cl)cc1	i
O=C(COc1ccc2ccccc2c1Br)NNC(=O)Nc1ccccc1	i
CCOC(=O)COc1ccc(C(=O)NC2CCCCC2)cc1	1.7
Cc1ccc(C2CC(=O)Nc3cc4c(cc32)OCO4)o1 (configuration not stated)	i
NC(=O)c1ccc(Cc2ncc(C(F)(F)F)cc2Cl)s1	1.2

# Next section:
SMILES	H5N1 antiviral
O=c1oc2ccccc2cc1-c1nc2ccccc2o1	0.6
Cc1ccc2c(c1)nnn2C1CCN(C(=O)c2cccs2)CC1	i
Cc1sc2ncnc(N(C)Cc3ccco3)c2c1C	i
COC(=O)c1ccc(NC(=O)Cn2nc(SC)n(N)c2=S)cc1	i
CCCc1cc(=O)[nH]c(SCC(=O)NC(=O)OCC)n1	0.4
COc1cc2c(C(=O)NCc3ccc(C)o3)cn(CC(C)C)c(=O)c2cc1OC	i
COc1ccc(/C=N/OC/C(O)=C(\C#N)c2nc3ccccc3[nH]2)cc1	i
O=C(Nc1ccc2nsnc2c1)N1CCCCCC1	1.0
CCc1c(C)nc2ncnn2c1NCc1cccs1	1.2
Cc1ccc2nc(SCC(=O)Nc3ccc4sc(C)nc4c3)c(C#N)cc2c1	i
CC1=CC(c2ccccc2)n2nc(N3C(=O)c4ccccc4C3=O)nc2N1 (configuration not stated)	i
COc1ccc(N2CCN(C(=O)CN(Cc3ccc(Cl)cc3)S(C)(=O)=O)CC2)cc1	0.5
COc1cccc(Nc2nc(NCC3CCCO3)c3ccccc3n2)c1 (configuration not stated)	i
O=C(Nc1ccccc1C(=O)Nc1ccccc1C(=O)NCc1ccco1)c1ccco1	0.2
Cc1cc(NC(=O)c2cc(-c3cccnc3)nc3c(C)c(C)ccc23)no1	4.2

# Additional results
SMILES	H5N1 antiviral
COc1cccc(NC(=O)N2CCCC2C(=O)Nc2ccc3c(c2)OCO3)c1 (configuration not stated)	0.8
Cc1cccc(N2CCN(C(=O)Cn3ccc4ccccc4c3=O)CC2)c1C	0.1
O=C(O)Cn1cccc1C(=O)c1ccccc1	i
CCN(CC(=O)N1CCCCCC1)S(=O)(=O)c1ccc(Cl)cc1	0.3
N#C/C(=C\c1ccc(N2CCCC2)c([N+](=O)[O-])c1)c1nc2ccccc2[nH]1	i
Cc1c(N=Cc2ccccn2)c(=O)n(-c2ccccc2)n1C	0.1
CCCn1c(=O)c2c(c3ccccc31)OC(C)C(=O)N2 (configuration not stated)	0.1
N#CC1=C2SCN(Cc3ccccc3)CN2C(=O)CC1c1ccccc1F (configuration not stated)	0.4
C=CCOc1ccc(/C(O)=C2\C(=O)C(=O)N(CCN(C)C)C2c2cccs2)cc1 (configuration not stated)	i
CCOc1ccc(CCNc2nc3c(c(=O)n(C)c(=O)n3C)n2CC)cc1OCC	1.0
COc1cc(C2C(C#N)=C(N)N(Nc3ccccc3)C3=C2C(=O)CC(C)(C)C3)ccc1OCc1ccccc1 (configuration not stated)	i
COc1ccccc1NC(=S)NNC(=O)c1nn(C)cc1Cl	0.5
Cc1cc(-c2sccc2C)nc(-n2cccc2)n1	3.0
CCNC(=O)Cc1ccc(NS(=O)(=O)c2ccc(F)cc2)cc1	0.8
Cc1csc(-c2cnn(-c3ccccc3)c2NC(=O)c2cccc(C(F)(F)F)c2)n1	i

# Further entries.
SMILES	H5N1 antiviral
C=CCCCCCCCCc1nc(=S)[nH][nH]1	0.0
COCCOC(=O)c1c(N)n(Cc2ccc(OC)cc2)c2nc3ccccc3nc12	0.3
N#CC1=C(N)C(C#N)(C#N)[C@H](c2ccoc2)[C@H]2CN(Cc3ccccc3)CC=C12	i
CCOC(=O)c1c(C)c(-c2ccccc2)n(CC(=O)N2CCCC2)c1C	i
O=C(Cn1cnc2ccccc2c1=O)c1ccc2c(c1)OCCO2	i
CC(=O)c1cccc(NC(=O)C(OC(=O)/C=C/c2ccc3c(c2)OCO3)c2ccccc2)c1 (configuration not stated)	0.2
COc1ccc(Oc2ncnc3c2ncn3Cc2ccccc2)cc1	i
CCc1nnc(NC(=O)C2Cc3ccccc3CN2S(=O)(=O)c2c(C)c(C)cc(C)c2C)s1 (configuration not stated)	i
Cc1cccc(NC(=O)Nc2ccc(C)c(C)c2)n1	i
CN(CCc1ccccn1)C(=O)Nc1ccc(Cl)cc1	2.1
CCOC(=O)CC(=O)Nc1ccccc1C(=O)O	i
CCOc1cccc(/C(O)=C2/C(=O)C(=O)N(CCOC)C2c2ccncc2)c1 (configuration not stated)	i
O=C(Nc1ccc2c(c1)nc1n2CCN(Cc2ccccc2)C1)c1cccs1	0.6
O=C(Nc1ccccc1)c1ccc(NC2CCCCC2)c(S(=O)(=O)N2CCOCC2)c1	2.1
COc1ccc2c(c1)c(=O)oc1cc(OCC(=O)N3CCc4ccccc4C3)ccc12	0.4

# Continuation:
SMILES	H5N1 antiviral
CCOC(=O)c1ccc(N2C(=O)CC(N3CCN(C/C=C/c4ccccc4)CC3)C2=O)cc1 (configuration not stated)	0.5
O=C(NCc1cccs1)Nc1cccs1	15.5
CCN(CC)CCN=Cc1c(O)n(CCC2=CCCCC2)c(=O)[nH]c1=O	1.6
CCN1CCN(C(=O)CS(=O)Cc2nc(-c3ccc(OC)cc3)oc2C)CC1 (configuration not stated)	1.5
C=CCOc1ccc(CNn2cn[nH]c2=S)cc1OC	0.7
CCc1c(C)nc(N)nc1OCC(F)(F)C(F)F	i
O=C(CSc1nccn1Cc1ccccc1)NCc1ccccc1	i
CCOC(=O)N1CCN(C(=O)C2CCN(S(=O)(=O)N3CCCC3)CC2)CC1	0.3
Cc1ccc(S(=O)(=O)N2CCC(C(=O)NCCc3ccc(S(N)(=O)=O)cc3)CC2)cc1	i
CN(C)S(=O)(=O)n1cnc2ccccc21	0.7
COC(=O)C(C)Sc1nnc(SC(C)C(=O)OC)s1 (configuration not stated)	0.3
CC(=O)c1ccc(OC(C)C)c(CSc2nc(O)cc(=O)[nH]2)c1	i
O=C(O)c1cc(S(=O)(=O)O)ccc1O	1.2
Cc1ccccc1-c1ccc(Nc2ccc(N3CCOCC3)cc2)nn1	0.5
CCOC(=O)c1cc2sccc2n1CC(=O)N1c2ccccc2CC1C (configuration not stated)	i

# (listing goes on)
SMILES	H5N1 antiviral
O=C(OCc1nnc(-c2ccc(Cl)cc2)o1)c1ccncc1	i
O=C(Nc1ccc(C(=O)N2CCCCC2)cc1)C1CCCCC1	i
N#CC1=C(N)OC(c2ccccc2)=C(C#N)C1c1ccc2c(c1)OCO2 (configuration not stated)	i
Cn1c(=O)oc2cc(S(=O)(=O)NC3CCN(Cc4ccccc4)CC3)ccc21	0.9
COc1cc(/C=C2\SC(c3ccc(C)cc3)=NC2=O)cc(OC)c1OC	i
Cc1ccc(N2CS(=O)(=O)/C(=C/N(C)C)C2=O)cc1	1.5
CCC(C)(C(=O)NC1CCCC1)N(Cc1cccs1)C(C)=O (configuration not stated)	1.4
CCOc1cc(S(=O)(=O)n2nc(C)cc2C)ccc1F	0.6
CN1CCN(S(=O)(=O)c2ccc3[nH]cc(C(=O)O)c(=O)c3c2)CC1	0.6
O=C(COC(=O)C12CC3CC(CC(C3)C1)C2)NC12CC3CC(CC(C3)C1)C2	1.8
Cc1cccc(Sc2c(C=O)c3ccccc3n2C)c1	i
COc1ccc(N(C)S(=O)(=O)c2cccc3cccnc23)c(OC)c1	1.3
COc1ccc(N=CC2=C(O)CC(C)(C)CC2=O)cc1	i
O=C(c1ccc(F)cc1)C1CCN(C(=O)NC2CCCCC2)CC1	i
CCOC(=O)c1nnn(-c2nonc2N)c1-c1ccc(OC)cc1	0.8

# New compounds follow
SMILES	H5N1 antiviral
CC1CCN(S(=O)(=O)c2cccc(-c3cn4cc(Cl)ccc4n3)c2)CC1	i
Cn1c(Cc2cccs2)nnc1SC/C=C/c1ccccc1	2.2
COc1ccc(C(=O)Nc2ccc(S(=O)(=O)N3CCCCC3)cc2)cc1	2.8
Cc1ccc(N2CC(C(=O)Nc3cccc(F)c3)CC2=O)cc1 (configuration not stated)	i
COC(=O)COc1ccc(S(=O)(=O)NCCC2=CCCCC2)cc1Cl	0.4
CC(=O)Nc1cc(C(=O)O)ccc1S(=O)(=O)c1ccc(Cl)cc1	i
COc1cccc(NC(=O)Cc2nnc(SCC(=O)c3ccccc3)n2C)c1	1.3
Cc1cccc(CCNC(=O)C2CCN(S(=O)(=O)c3cccc4nsnc34)CC2)c1	0.5
Cc1c(C(=O)COC(C)(C)C)[nH]c2ccccc12	1.0
COc1ccccc1CNC(=O)CCNC(=O)Cn1ccc2ccccc2c1=O	1.0
NCc1cccc(-n2cccn2)c1	i
CC(C)C(NS(=O)(=O)c1cccs1)C(=O)Nc1nc(C(C)(C)C)cs1 (configuration not stated)	0.0
Clc1ccc(CSc2ncn[nH]2)cc1	1.1
CC1CCN(S(=O)(=O)Cc2ccccc2Cl)CC1	1.8
CCCCN(C)C(=O)C1CCC(=O)N(c2cc(OC)c(OC)c(OC)c2)C1c1ccc(OC)cc1 (configuration not stated)	0.6

# (list continues)
SMILES	H5N1 antiviral
CCOC(=O)N1CCN(S(=O)(=O)c2ccc(F)cc2)CC1	0.3
CCCCn1c(O)c(C=Nc2c(C)n(C)n(-c3ccccc3)c2=O)c(=O)[nH]c1=O	i
O=C(Nc1cccc(-c2cn3ccccc3n2)c1)c1cc2ccccc2oc1=O	0.1
COc1cccc(OCC(=O)Nc2ccccc2NC(C)=O)c1	i
COC(=O)CSc1ncc(C#N)c(N)n1	i
O=C(O)c1cc(C(=O)O)c(-c2ccccc2)c(C(=O)O)c1	i
O=C(c1ccco1)n1nc(-c2ccco2)nc1SCc1ccccc1	1.9

# Part of the list above in order of SMILES length, highest first:
SMILES	H5N1 antiviral
CCCCN(C)C(=O)C1CCC(=O)N(c2cc(OC)c(OC)c(OC)c2)C1c1ccc(OC)cc1 (configuration not stated)	0.6
CCCCn1c(O)c(C=Nc2c(C)n(C)n(-c3ccccc3)c2=O)c(=O)[nH]c1=O	i
O=C(COC(=O)C12CC3CC(CC(C3)C1)C2)NC12CC3CC(CC(C3)C1)C2	1.8
Cc1cccc(CCNC(=O)C2CCN(S(=O)(=O)c3cccc4nsnc34)CC2)c1	0.5
CN1CCN(S(=O)(=O)c2ccc3[nH]cc(C(=O)O)c(=O)c3c2)CC1	0.6
CC(C)C(NS(=O)(=O)c1cccs1)C(=O)Nc1nc(C(C)(C)C)cs1 (configuration not stated)	0.0
O=C(Nc1cccc(-c2cn3ccccc3n2)c1)c1cc2ccccc2oc1=O	0.1
COc1ccc(C(=O)Nc2ccc(S(=O)(=O)N3CCCCC3)cc2)cc1	2.8
CC(=O)Nc1cc(C(=O)O)ccc1S(=O)(=O)c1ccc(Cl)cc1	i
COc1ccc(N(C)S(=O)(=O)c2cccc3cccnc23)c(OC)c1	1.3
COc1ccccc1CNC(=O)CCNC(=O)Cn1ccc2ccccc2c1=O	1.0
O=C(O)c1cc(C(=O)O)c(-c2ccccc2)c(C(=O)O)c1	i
O=C(c1ccc(F)cc1)C1CCN(C(=O)NC2CCCCC2)CC1	i
CCOC(=O)c1nnn(-c2nonc2N)c1-c1ccc(OC)cc1	0.8
CCC(C)(C(=O)NC1CCCC1)N(Cc1cccs1)C(C)=O (configuration not stated)	1.4
COc1cccc(OCC(=O)Nc2ccccc2NC(C)=O)c1	i
CCOc1cc(S(=O)(=O)n2nc(C)cc2C)ccc1F	0.6
Cn1c(Cc2cccs2)nnc1SC/C=C/c1ccccc1	2.2
Cc1cccc(Sc2c(C=O)c3ccccc3n2C)c1	i
COC(=O)CSc1ncc(C#N)c(N)n1	i
Clc1ccc(CSc2ncn[nH]2)cc1	1.1
NCc1cccc(-n2cccn2)c1	i

# A portion of the library, so the mix of outcomes need not match the whole.
